MbtI inh = MbtI salicylate synthase inhibitors, primary screen, biochemical, fluorescence intensity; purified MbtI enzyme, fluorescence intensity read-out; P9WFX0; 0.89% of 100,000 active; inhibition, %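 (about 17 µg/mL by stock and volumes)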;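 active = above 50% in both replicates, above 80% if mildly self-fluorescent; inactive = the rest, strongly fluorescent compounds included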;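 note: 0% = mean of negative and 100% = mean of positive controls; one replicate is shown; some compounds called inactive have numbers as strong as hits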
Polio RdRp inh = poliovirus RdRp elongation inhibitors, primary screen, biochemical, fluorescence polarization, total intensity; Genome polyprotein (Poliovirus type 1 (strain Mahoney)), P03300; poliovirus polymerase elongation; hits give low values; % elongation, % (compound at 16.7 µg/mL); 0.66% of 150,000 active; AID 588519, 2011; in the data active = % elongation below about 90%; note: some results filed as inactive read as strong as hits
Target sequence (P03300 1749-2209 limits assumed): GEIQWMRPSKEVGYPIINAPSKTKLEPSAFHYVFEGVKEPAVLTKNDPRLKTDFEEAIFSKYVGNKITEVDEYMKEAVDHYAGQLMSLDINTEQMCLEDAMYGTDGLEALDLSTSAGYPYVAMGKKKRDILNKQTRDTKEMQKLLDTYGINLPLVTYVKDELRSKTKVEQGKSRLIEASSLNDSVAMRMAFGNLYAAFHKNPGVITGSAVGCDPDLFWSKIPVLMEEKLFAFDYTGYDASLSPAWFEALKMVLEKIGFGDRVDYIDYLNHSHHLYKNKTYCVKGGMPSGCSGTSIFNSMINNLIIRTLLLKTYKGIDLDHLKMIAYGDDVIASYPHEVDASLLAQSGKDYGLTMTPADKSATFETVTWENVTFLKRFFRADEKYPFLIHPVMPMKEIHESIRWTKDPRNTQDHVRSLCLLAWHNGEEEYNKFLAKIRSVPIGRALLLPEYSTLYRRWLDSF
MenB inh = M. tuberculosis MenB inhibitors, primary screen, biochemical, absorbance; MenB enzyme assay, absorbance read-out; some hits fall short of the stated cut; inhibition, %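 (about 12 µg/mL by stock and volumes)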; 0.43% of 100,000 active;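 active = mean of two replicates above 30%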;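 note: 0% = no compound and 100% = wells with inactive enzyme; the first replicate is given; strong numbers were not always called active; inactives centre near -10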
Target sequence (P9WNP5 whole entry, looked up): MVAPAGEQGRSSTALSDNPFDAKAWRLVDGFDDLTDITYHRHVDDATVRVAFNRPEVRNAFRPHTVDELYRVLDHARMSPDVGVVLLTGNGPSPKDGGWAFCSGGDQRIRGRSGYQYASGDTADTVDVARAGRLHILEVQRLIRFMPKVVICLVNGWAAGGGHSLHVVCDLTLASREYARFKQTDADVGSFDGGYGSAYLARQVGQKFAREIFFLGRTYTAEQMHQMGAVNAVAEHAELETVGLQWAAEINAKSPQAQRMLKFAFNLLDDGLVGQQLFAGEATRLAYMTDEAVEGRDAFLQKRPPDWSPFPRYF
Polio RdRp inh intensity = further read-out of Polio RdRp inh, marked with its call; % elongation; measured here: total intensity read-out; formula for this scale not given here;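 total fluorescence in place of polarization; lower means less elongation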
* marks the source's active call; other numbers are inactive results; . = no result given; & = joins results of further samples.

SMILES	MbtI inh	Polio RdRp inh	Polio RdRp inh intensity	MenB inh
Nc1ccc(C(=O)N2CCCC2)cc1	-10	101	102	-10
COc1cccc(NC(=S)Nc2ccc3nc4n(c(=O)c3c2)CCCCC4)c1	-2	100	101	-9
COCCNC(=O)c1cc2sc3ccccc3c2s1	12	101	98	-6
Cc1ccc(C)n1-c1ccsc1C(=O)NN	-29	102	98	-3
CCCCCCc1c(C)c2ccc(OC(C)C(=O)O)c(C)c2oc1=O (configuration not stated)	115	104	101	-21
CC(C)(C)NC(=O)NCC1COC2(CCCCC2)O1 (configuration not stated)	-1	104	98	-15
CC(C)CCNC(=O)C1CCN(Cc2ccccc2O)CC1	-6	106	102	-35
Cc1cc(C)cc(NC(=O)Cn2cnc3c2c(=O)n(C)c(=O)n3C)c1	3	103	102	-12
CCc1ccc2[nH]c(=O)c(C(c3nnnn3C3CCCC3)N(C)Cc3ccccc3)cc2c1 (configuration not stated)	-8	101	103	-5
O=C(/C=C/c1ccc(OC(F)F)cc1)Oc1ccc(-n2cnnn2)cc1	0	107	111	-22
COc1ccccc1NC(=O)c1noc2ncn(C)c(=O)c12	-12	100	103	-16
CCN(CC)C(=O)c1ccccc1-c1ccccc1C(=O)O	-8	97	108	-3
COc1cc(OC)c(C(=O)OCC#N)cc1OC	-9	102	93	-28
O=C(NCc1ccco1)c1ccccc1SCc1ccc(F)cc1	.	105	111	-16
COCCn1c(SC(C)C(N)=O)nc2ccccc21 (configuration not stated)	0	107	108	-16
CCc1cccc(NC(=S)N(CCOC)C(C)c2cccs2)c1 (configuration not stated)	-3	103	108	-9
Cn1nc(NC(=O)CC(C)(C)CC(=O)O)c2c(F)cccc21	-8	101	108	3
Oc1ccc(-c2[nH]ncc2-c2cnn(-c3ccccc3)c2)c(O)c1	-51	101	106	.
NC(=S)/N=C1\CCCCC1=C1CCCCC1	11	102	102	-33
CCC1S/C(=N\C(=O)Nc2ccc(Cl)c(Cl)c2)NC1=O (configuration not stated)	-8	101	106	1
Cc1cc(O)c(C(=O)Nc2ccc(Cl)c(Cl)c2)c(=O)n1CC1CCCO1 (configuration not stated)	16	100	106	-6
O=C1C(=C2SCCS2)CC/C1=C\c1ccccc1	2	100	102	-33
O=C1CC(=O)N2N=C(c3ccccc3)SC2=N1	20	106	106	-128
COc1cccc(C(=O)COc2cccc(NC(=O)c3ccco3)c2)c1	7	100	103	-17
CC(C)C(NC(=O)Cn1c(=O)oc2ccccc21)c1nc2ccccc2[nH]1 (configuration not stated)	7	104	109	9

Next section; the last 7 above are carried over.
SMILES	MbtI inh	Polio RdRp inh	Polio RdRp inh intensity	MenB inh
NC(=S)/N=C1\CCCCC1=C1CCCCC1	11	102	102	-33
CCC1S/C(=N\C(=O)Nc2ccc(Cl)c(Cl)c2)NC1=O (configuration not stated)	-8	101	106	1
Cc1cc(O)c(C(=O)Nc2ccc(Cl)c(Cl)c2)c(=O)n1CC1CCCO1 (configuration not stated)	16	100	106	-6
O=C1C(=C2SCCS2)CC/C1=C\c1ccccc1	2	100	102	-33
O=C1CC(=O)N2N=C(c3ccccc3)SC2=N1	20	106	106	-128
COc1cccc(C(=O)COc2cccc(NC(=O)c3ccco3)c2)c1	7	100	103	-17
CC(C)C(NC(=O)Cn1c(=O)oc2ccccc21)c1nc2ccccc2[nH]1 (configuration not stated)	7	104	109	9
CC(C)(O)/C(=C\C#N)n1c(=O)oc2ccccc21	-3	101	100	-15
CN1CCCN(Cc2cc(Br)cs2)CC1	-9	99	102	-1
c1cc(CN2CCNCC2)cs1	-18	102	108	-10
CCc1ccc(/C=c2\s/c(=C(/C#N)C(=O)C(C)(C)C)n(Cc3ccco3)c2=O)cc1	2	107	102	9
COc1ccc(CC(=O)Nc2c3c(nn2-c2ccc(C)cc2)CSC3)cc1	4	100	91	-24
OCc1cc(Cl)c2c(c1)OCO2	-13	105	109	-15
COC(=O)c1ccc(O)c(Sc2cc(C(=O)OC)ccc2O)c1	40	100	103	-18
CCc1ccc(C2=Nn3c(nnc3-c3cccc(S(=O)(=O)N(CC)CC)c3)SC2)cc1	50	98	97	-32
COc1cccc(C(=O)N(C)C2(c3ccccc3Cl)CCCCC2=O)c1OC (configuration not stated)	-9	100	98	.
Nc1c(C(=O)N2CCCC2)sc2nc(-c3ccccc3)ccc12	9	.	.	-10
CC1CC(=O)Nc2ccccc2N1C(=O)CCC(=O)O (configuration not stated)	-6	100	101	7
CCn1c(=O)n(CC)c2cc(S(=O)(=O)Nc3ccccc3C)c(C)cc21	-11	101	102	-4
CN(Cc1nc2cc(-c3ccc(Cl)cc3)sc2c(=O)[nH]1)Cc1ccco1	5	100	104	-6
CCN(CC)S(=O)(=O)c1ccc(/C=C/C(=O)N2CC(C)OC(C)C2)cc1 (configuration not stated)	3	100	105	9
CCOc1ccc(Nc2nc3c(C)cccc3cc2C#N)cc1	.	110	215	-12
CCOC(=O)c1nnn(-c2nn3nnnc3c3ccccc23)c1C	14	100	100	32*
Cc1cc(C)c2c(=O)[nH]sc2n1	84	102	95	1
Clc1ccc(-c2noc3ncnc(NCc4ccccc4)c23)cc1	-10	103	104	2
Cc1onc(-c2ccccc2)c1CNC(=O)Nc1cccc(Cl)c1	1	104	95	13
CCOC(=O)C(C)(C)Sc1nc(-c2ccc(F)cc2)nc2c1c(=O)n(C)c(=O)n2C	-12	103	101	-15
O=C(CSc1nnc(Cc2csc(Nc3cccc(Cl)c3)n2)o1)c1ccc2c(c1)OCCO2	2	104	102	-56
C[C@@H]1O[C@@H](O[C@H]2CC[C@]3(C=O)C4CC[C@]5(C)[C@@H](C6=CC(=O)OC6)CC[C@]5(O)C4CC[C@]3(O)C2)[C@H](O)[C@H](O)[C@H]1O (some centres not stated)	-10	102	101	-3
CC12OC(=N)C(C#N)(C1c1ccccc1)C(C#N)(C#N)C(c1ccccc1)O2 (configuration not stated)	.	98	106	-30
COc1cccc2cc(S(=O)(=O)c3ccc(Cl)cc3)c(=O)oc12	5	101	103	-22
CCN(CC)C(=O)c1cc(C)no1	-7	104	99	-23

Single records, from the list above.
CCOC(=O)c1nnn(-c2nn3nnnc3c3ccccc23)c1C as listed: MbtI inh = 14; Polio RdRp inh = 100; Polio RdRp inh intensity = 100; MenB inh = 32*
COc1cccc(C(=O)N(C)C2(c3ccccc3Cl)CCCCC2=O)c1OC (configuration not stated) as listed: MbtI inh = -9; Polio RdRp inh = 100; Polio RdRp inh intensity = 98; MenB inh = .

Going on with the list:
SMILES	MbtI inh	Polio RdRp inh	Polio RdRp inh intensity	MenB inh
O=c1[nH]c(NCCCN2CCOCC2)nnc1-c1ccccc1	-2	101	104	12
Cc1ccccc1-c1nc2ccccc2c(=O)n1C	22	103	104	-4
NCCN1CCCCC1	11	101	117	18
O=C(Cc1ccccc1)Nc1nonc1NC(=O)c1ccccc1	.	97	98	-56
CCOC(=O)c1cnc2c(ccc3ccccc32)c1NCc1ccco1	18	101	97	-14
CCCCC[C@@H](/C=C/C=C\C/C=C\C/C=C\CCCC(=O)O)OO	-8	100&100	103&101	10
Cc1ccc2cc3c(nc2c1)N(c1ccccc1)CC3	103	104	109	-23
O=C(O)CCCNc1nc(-c2ccccc2)cs1	64	99	92	7
Cc1cc2c(=O)n(Cc3ccco3)c(SCc3nc4ccccc4[nH]3)nc2s1	4	101	102	-13
N#C/C(N)=C(\C#N)N=Cc1ccc(C#N)cc1	-12	121	149	-21
CC(C)(C)S(=O)(=O)c1cccs1	.	106	110	-16
CC(C)NC(=S)Nc1ccc2nc3n(c(=O)c2c1)CCCCC3	6	101	101	8
CN(Cc1ccccc1)C(=O)Cn1cnc2onc(-c3ccc(Cl)cc3)c2c1=O	-5	102	102	-16
CC(=O)N1CCN(CC(=O)Nc2ccc(C#N)c(Cl)c2)CC1	-31	108	105	-26
O=C(/C=C/c1ccco1)Nc1ccc(S(=O)(=O)N2CCc3ccccc32)cc1	22	101	106	-11
COc1ccc(C(=O)N2CCN(C)CC2)cc1OC	8	105	101	-20
O=C(CSC1CCCC1)NCC1CCCCC1	-4	100	97	.
CN1CCC(N(C)C(=O)NC2CC(=O)N(c3cccc(F)c3)C2)CC1 (configuration not stated)	-6	106	97	-33
O=Cc1c(O)n(-c2ccc(Cl)cc2)c(=O)[nH]c1=O	.	157	156	-54
c1ccc(Nc2c(-c3ccco3)nc3ccccn23)cc1	109	102	106	-20
O=C(Nc1nc2ccccc2s1)NC1CCCCC1	12	100	102	16
c1ccc(COc2ccc(C3SCCS3)cc2)cc1	-27	102	111	2
CN(CCC#N)c1ncnc2c1oc1ccccc12	-9	99	100	-15
Clc1ccc(-c2nc(N3CCOCC3)nc3ccccc23)cc1	5	101	102	-1
CCNC(=S)Nc1ccc2cn[nH]c2c1	1	102	99	6

Reformatted as labelled records: 2 of the compounds above
Cc1ccccc1-c1nc2ccccc2c(=O)n1C
  MbtI inh = 22; Polio RdRp inh = 103; Polio RdRp inh intensity = 104; MenB inh = -4

NCCN1CCCCC1
  MbtI inh = 11; Polio RdRp inh = 101; Polio RdRp inh intensity = 117; MenB inh = 18

Given with values under each structure: part of the list above
Each structure is followed by: MbtI inh, Polio RdRp inh, Polio RdRp inh intensity, MenB inh
N#C/C(N)=C(\C#N)N=Cc1ccc(C#N)cc1
  -12, 121, 149, -21
Nc1c(C(=O)N2CCCC2)sc2nc(-c3ccccc3)ccc12
  9, ., ., -10
CC(C)C(NC(=O)Cn1c(=O)oc2ccccc21)c1nc2ccccc2[nH]1 (configuration not stated)
  7, 104, 109, 9
O=Cc1c(O)n(-c2ccc(Cl)cc2)c(=O)[nH]c1=O
  ., 157, 156, -54
Cc1ccccc1-c1nc2ccccc2c(=O)n1C
  22, 103, 104, -4

Remaining list, next part:
SMILES	MbtI inh	Polio RdRp inh	Polio RdRp inh intensity	MenB inh
CN(CC(=O)NCc1ccccc1)c1nnc(N2CCCC2=O)s1	6	106	99	12
O=C(Nc1nn[nH]n1)c1cc(F)c(F)cc1Cl	-2	103	109	.
CC1(C)Cc2nc(N3CCCC3)c(C#N)cc2CO1	.	104	107	-8
COC(=O)c1cc2occc2n1Cc1ccc(C)cc1	6	101	104	0
Cn1c(=O)c2c(nc(Br)n2CC(=O)c2ccccc2)n(C)c1=O	.	107	114	-6
S=c1[nH]cnc2scc(-c3ccc(Cl)cc3)c12	29	96	87	-77
CCOC(=O)c1cn(CC)c2c(ccc3ccccc32)c1=O	55	101	98	-67
COC(=O)c1ccccc1NC(=O)Cn1c(=O)c2ccccc2n2nncc12	24	99	106	-1
Cc1cc(C(=O)O)c(S(C)(=O)=O)s1	.	104	105	-1
S=c1[nH]c(-c2ccccc2)cs1	91	97	96	-38
Cc1cc(Br)c(O)c(Br)c1	0	.	.	-22
COC(=O)c1ccc(NC(=O)NC(=O)C(F)(F)F)cc1	-10	103	106	-9
CCC(=O)N(c1nnc(SCc2cc(=O)n3c(C)csc3n2)s1)C1CC1	19	99	102	-26
Cc1ccc(C)c(S(=O)(=O)N(CC(N)=O)C(C)c2ccccc2)c1 (configuration not stated)	-3	102	103	4
O=C(CSC1=NC2(CCCC2)N=C1c1ccccc1)Nc1ccccc1	3	101	97	-27
C=CCNCc1ccccc1F	-1	99	117	14
Cn1cnnc1SCc1ccc(C#N)cc1	2	106	109	-12
Cc1cc(C(F)F)c2c3ccccc3n(C)c2n1	102	110	118	-8
CC(C)OC(=O)N(C)c1ccc(C(O)(C(F)(F)F)C(F)(F)F)cc1	8	103	99	-27
N#CC1(NC(=O)CN2CCN(C(=O)c3ccccc3)CC2)CCCC1	0	102	104	3
CCOc1cc(C=NN2CCN(Cc3ccccc3)CC2)ccc1O	16	102	102	-13
CCN1CCN(C(=O)c2oc3ccc4c(c3c2C)C(=O)CC2(CCCCC2)O4)CC1	41	100	102	8

Compound activity from PubChem BioAssay.
